INS promoter inh: TRM-6 insulin promoter activity inhibition; TRM-6 cells (human fetal islet line), insulin promoter-eGFP reporter, imaging; reporter expression induced with tamoxifen; hit rate 0.9% among 130,000; inhibition, % at 2 µM; AID 1273;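 active = inhibition above the mean plus 3 SD, with well images judged a real hit on visual review, cut at about 60% in these data, passing the limit was not always enough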
RGS16-Gao HTS: modulates binding between human RGS16 and Galphao | O15492+P09471 | bead-based flow cytometry RGS16-Galphao binding, fluorescence; actives lie on both sides | binding response (% of control), % at 10 µM | hit rate 0.38% among 220,000 | AID 1441;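 active = below 25% or above 175%, edge rows of some plates excepted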;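 also: Galphao activated by GDP with aluminum fluoride before binding; 100% = wells without compound and 0% = beads without RGS; some results beyond the cut were filed as inactive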
GALR2 ag: GALR2 (human) receptor agonism | activation, %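 (tested at 5 µM)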 | GALR2-expressing cells, agonist activation read-out | hit rate 0.48% among 140,000 | O43603 | AID 803;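 active = above mean plus 3 SD of all compounds, about 5% in these data, not always enough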;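 also: 0% = vehicle buffer wells and 100% = reference agonist at full effect; tested in CHO reporter cells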
HSV augment: increases HSV replication in cells; HSV replication augmentation in cells, fold increase; maximum fold increase; hit rate 0.005% among 220,000; AID 1956;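 active = peak rise of 1.5-fold or more in the series; tested in PC3 cells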;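 also: first round at 10 µM; read as green reporter fluorescence; hits show the peak of a series up to 25 µM; 1 = signal of infected wells without compound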
PKD1 inh: blocks activity of human protein kinase D1. Q15139. PKD1 kinase fluorescence polarization assay. inhibition, %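 (about 10 µM by stock and volumes)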. hit rate 0.056% among 200,000. AID 797;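 active = inhibition of 50% or more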;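 also: controls were vehicle for no effect and a reference inhibitor for full effect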
Target sequence (Q15139 whole entry, looked up): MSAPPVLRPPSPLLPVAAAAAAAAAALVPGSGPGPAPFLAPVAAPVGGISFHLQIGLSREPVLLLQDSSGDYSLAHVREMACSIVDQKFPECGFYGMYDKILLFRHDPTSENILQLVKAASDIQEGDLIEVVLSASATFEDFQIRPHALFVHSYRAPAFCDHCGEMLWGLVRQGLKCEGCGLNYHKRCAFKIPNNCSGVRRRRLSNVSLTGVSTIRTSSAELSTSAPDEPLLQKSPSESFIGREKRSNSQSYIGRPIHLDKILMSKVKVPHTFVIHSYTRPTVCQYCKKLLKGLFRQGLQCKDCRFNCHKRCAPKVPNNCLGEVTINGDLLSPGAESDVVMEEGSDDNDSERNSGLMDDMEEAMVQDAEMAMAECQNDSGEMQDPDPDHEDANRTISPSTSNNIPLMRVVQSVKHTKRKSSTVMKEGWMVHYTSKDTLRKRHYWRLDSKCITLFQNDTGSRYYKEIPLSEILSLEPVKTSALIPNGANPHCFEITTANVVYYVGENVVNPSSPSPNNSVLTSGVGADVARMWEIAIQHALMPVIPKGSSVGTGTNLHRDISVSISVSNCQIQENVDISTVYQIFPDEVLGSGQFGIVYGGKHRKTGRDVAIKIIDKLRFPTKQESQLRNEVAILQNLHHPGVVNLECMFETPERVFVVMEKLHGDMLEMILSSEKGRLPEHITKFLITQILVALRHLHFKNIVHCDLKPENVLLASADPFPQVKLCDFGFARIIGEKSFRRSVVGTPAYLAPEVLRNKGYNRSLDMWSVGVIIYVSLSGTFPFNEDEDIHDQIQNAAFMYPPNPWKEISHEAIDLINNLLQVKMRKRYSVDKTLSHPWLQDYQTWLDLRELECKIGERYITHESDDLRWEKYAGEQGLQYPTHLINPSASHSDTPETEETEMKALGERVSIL
INS promoter inh cell count: recorded beside INS promoter inh, whose call it bears; normalized cell count, %; measured here: cell count, toxicity; reference of the scale not given here;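 cells exposed to compound for 48 h; stained nuclei by imaging scaled within each plate; lower means fewer cells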
HSV augment primary fold: further read-out of HSV augment, marked with its call; fold increase; compound at 10 µM; measured here: primary screen fold increase 10 uM; tested in PC3 cells;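 GFP signal in the first replicate; 1 = infected wells without compound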
An asterisk follows results filed as active; i = inactive; / = no result given; & = joins results of further samples.

SMILES	INS promoter inh	INS promoter inh cell count	RGS16-Gao HTS	GALR2 ag	HSV augment	HSV augment primary fold	PKD1 inh
Cc1cc(NC(=O)CSCC(=O)N(c2cccc(Cl)c2)C(C(=O)NC2CCCCC2)c2ccc(O)c(O)c2)no1 (centres undefined)	-29	138	91	-0.9	i	0.99	-6
O=C(O)c1ccc(NC2CC(=O)N(Cc3ccccc3)C2=O)cc1 (centres undefined)	/	/	96	/	i	0.94	-6
O=c1cc(N2CCN(c3ccccc3)CC2)[nH]c(=O)n1-c1ccccc1	55	139	109	/	i	0.98	-9
CCC(C)[C@H](NC(=O)Nc1ccccc1F)C(=O)O (some centres undefined)	/	/	98	/	i	0.76	/
Cc1nn(C(C)C)c(C)c1CN1CCCC(C(=O)c2cccc(OC(C)C)c2)C1 (centres undefined)	-61	119	105	/	i	0.91	-5
CCOC(=O)c1sc(NC(=O)CSc2n[nH]c(CC(C)C)n2)nc1C	23	110	90	-1.4	i	0.83	0
COCc1cc(CN2CCCC(CNC(=O)c3ccc(F)cc3)C2)ccc1OC (centres undefined)	/	/	100	/	i	1.1	5
O=C(O)c1ccc(-n2nnnc2SCc2ccccc2)cc1	10	100	103	-0.5	i	0.93	-7
Cc1ccnc(Sc2ncccc2[N+](=O)[O-])n1	12	104	99	-1.0	i	0.95	3
CC(=O)c1cn(CC(=O)NCc2ccco2)c2ccccc12	-31	78	100	-3.2	i	1	-1

Full records, quoted from the list:
Record of O=c1cc(N2CCN(c3ccccc3)CC2)[nH]c(=O)n1-c1ccccc1 = INS promoter inh: 55; INS promoter inh cell count: 139; RGS16-Gao HTS: 109; GALR2 ag: /; HSV augment: i; HSV augment primary fold: 0.98; PKD1 inh: -9
Record of Cc1ccnc(Sc2ncccc2[N+](=O)[O-])n1 = INS promoter inh: 12; INS promoter inh cell count: 104; RGS16-Gao HTS: 99; GALR2 ag: -1.0; HSV augment: i; HSV augment primary fold: 0.95; PKD1 inh: 3

The results go on:
SMILES	INS promoter inh	INS promoter inh cell count	RGS16-Gao HTS	GALR2 ag	HSV augment	HSV augment primary fold	PKD1 inh
CCOc1ccc(C2c3[nH]c4ccccc4c3CCN2Cc2cn(CC)nc2C)cc1 (centres undefined)	/	/	102	/	i	1	-6
NC(=O)c1cnn2c(C(F)(F)F)cc(-c3ccccc3)nc12	-30	114	105	-1.2	i	0.96	10
CCSc1nnc(NC(=O)CSc2nccn2-c2cccc(C)c2)s1	-3	70	110	-0.7	i	0.93	-1
CCC1CCCCN1CCCNC(=O)C1CCN(S(=O)(=O)N2CCCCC2)CC1 (centres undefined)	-215	81	102	-0.2	i	1.2	1
Cc1cc2ncn(-c3ncnc4sc5c(c34)CCC(C)C5)c2cc1C (centres undefined)	-10	129	104	-1.4	/	/	0
COc1ccc(C2C(C(=O)N3CC(C)CC(C)C3)c3ccccc3C(=O)N2C)cc1 (centres undefined)	-73	119	107	-0.9	i	0.92	-8
CC1CC(=O)Nc2ccc([N+](=O)[O-])cc2N1C (centres undefined)	-57	107	105	-2.1	i	1.1	-6
COc1ccc(N2C(=O)C3C4c5ccccc5C(C=Nc5ccc(C)cc5C)(c5ccccc54)C3C2=O)cc1 (centres undefined)	/	/	/	-0.6	i	0.78	-5
CSc1nsc(SC)c1NC(=O)N1CCCC1	0	114	92	-0.3	i	1	-10
Cc1c(C(=O)OCC(=O)Nc2cccc(S(N)(=O)=O)c2)oc2c1ccc1ccccc12	/	/	98	/	i	0.94	4
Cc1cc(Cl)c(S(=O)(=O)N2CCCCCC2)cc1OCC(N)=O	-32	161	120	-0.9	i	0.85	-5
CCN(CC)C(=O)CSc1nnc(-c2ccccn2)n1Cc1ccccc1	/	/	104	/	i	0.92	/
CCOC(=O)N1CCC(N2Cc3cccc(C(=O)O)c3C2=O)CC1	/	/	100	-0.6	i	0.99	-7
Cc1cc(C)cc(NC(=O)CSc2nnc(-c3ccc(S(=O)(=O)N4CCCC4)cc3)o2)c1	/	/	102	-0.3	i	0.92	15
C/C(=N\NC(=O)c1ccccn1)c1ccc(C(=O)O)s1	/	/	167	/	i	0.88	-1
c1ccc2c(c1)ncn2CCOCCOCCn1cnc2ccccc21	-6	84	82	-1.8	i	1	4
COCCNC(=S)NN(c1ccccc1)c1ccccc1	-10	95	103	/	i	1	-4
Cc1ccc(/C=C/C(=O)O)cc1S(=O)(=O)NCc1ccco1	/	/	103	/	i	0.94	5
CC(=O)Nc1ccc(S(=O)(=O)C(C#N)c2nc3ccccc3nc2NCCCO)cc1 (centres undefined)	/	/	106	/	i	1	/
C=C(C)n1c(=O)[nH]c2ccccc21	/	/	102	-0.2	i	0.98	1
CCc1nnc(NC(=O)CSc2ncnc3c2cnn3-c2ccc(OC)cc2)s1	/	/	98	-0.2	i	0.82	-3
CCCCCC(=O)N(O)C1CC(=O)N(c2ccccc2)C1=O (centres undefined)	46	96	77	-5.1	i	1.1	-12
C=CCC1(N(C(C)=O)c2ccccc2C)CCCCC1	-14	91	152	/	i	0.93	4
OC(CNC1CCCCC1)CNC1CCCCC1	17	111	103	/	i	0.89	-11
CC(c1nccs1)N(C)C(=O)CCc1nnc(Cc2c[nH]c3ccccc23)o1 (centres undefined)	/	/	73	/	i	0.98	-3
O=C(N/N=C/c1cccnc1)C1CC1(c1ccccc1)c1ccccc1 (centres undefined)	5	111	99	/	i	1.1	8
COc1ccc(OCC(=O)Nc2ccc(Cl)cc2)cc1	/	/	112	/	i	1.2	-10
CCCNC(=O)CSc1nnc(-c2ccc(F)cc2)o1	/	/	113	/	i	1	-9
CCOc1ccc(NC(=O)CCC(=O)NNC(=O)COc2ccccc2C)cc1	/	/	101	/	i	0.7	-9
COc1cc(NC(=O)CCN2CCN(c3ccccc3F)CC2)cc(OC)c1	-21	91	103	-1.0	i	0.73	-13
O=C(/C=C/c1ccc(Cl)cc1)NCCc1ccccc1	/	/	108	0.0	i	1	1
CNC(=O)CN(c1cc(OCCOC)c(Cl)cc1Cl)S(=O)(=O)c1ccc(OC)cc1	-136	63	112	/	/	/	3
CCCOC(=O)c1c(NC(=O)CCC(=O)O)sc2c1CCCCC2	/	/	96	/	i	0.95	-3
Cn1c(=O)cc(OCC(=O)NCCc2ccc(Cl)cc2)c2ccccc21	6	132	101	/	i	0.86	6
CSc1nc2ccc(NC(=O)C3CCCO3)cc2s1 (centres undefined)	-114	113	98	-1.4	/	/	-6
O=C(O)C1C2CCC(O2)C1C(=O)Nc1ccc(F)cc1 (centres undefined)	42	80	97	/	i	0.94	1
Cn1c(=O)n(C)c2cc(C(N)=O)ccc21	-135	123	117	-0.6	i	0.78	2
O=S(=O)(Nc1ccc(O)c(Sc2nc3ccccc3s2)c1)c1ccc(F)cc1	-3	175	104	-1.1	i	0.96	-3
CC(C)N1C(=O)CCC1C(=O)NCCc1ccccc1 (centres undefined)	/	/	100	-2.1	i	1	-8
Cc1ccc(CNn2cnnc2SCC(=O)NC(C)(C)C)cc1	7	104	132	-1.9	i	0.82	8
CC(=O)Oc1ccc2c(C)cc(=O)oc2c1C(=O)c1ccccc1	0	171	99	-0.1	i	1	2
NC(=S)n1[nH]c(-c2ccc([N+](=O)[O-])cc2)c(N=Nc2ccc(Cl)cc2)c1=O	/	/	66	/	i	0.97	-4
O=C(O/N=C1\CCS(=O)(=O)c2sccc21)c1ccc(F)cc1	-9	165	101	/	i	0.97	3
CN(Cc1ccccc1)C(=O)Nc1ccccc1	48	154	77	-0.9	i	1	-13
C=CCn1c(-c2cccnc2)n[nH]c1=S	11	149	106	-0.6	i	0.97	-11
CC1CCC2(CC1)NC(=S)N(c1ccccc1)N2 (centres undefined)	38	92	105	-1.1	i	1.1	-3
CC(=O)Nc1cc(ON=C(C)C)cc([N+](=O)[O-])c1	-193	37	153	-1.1	i	0.95	-6
CCOc1ccc(NC2CCN(C(C)=O)CC2)cc1	/	/	99	-0.5	i	0.86	1
Cc1ccccc1OC(C)C(=O)NC1CCCC1 (centres undefined)	-14	138	97	-1.5	i	0.93	-5
CC1Cc2ccccc2N1C(=O)CCS(=O)(=O)c1cccc2nonc12 (centres undefined)	/	/	96	-0.2	i	0.79	1

Only GALR2 ag, PKD1 inh and RGS16-Gao HTS, for some of the entries so far:
smiles	GALR2 ag	PKD1 inh	RGS16-Gao HTS
Cc1cc(NC(=O)CSCC(=O)N(c2cccc(Cl)c2)C(C(=O)NC2CCCCC2)c2ccc(O)c(O)c2)no1 (centres undefined)	-0.9	-6	91
Cc1cc2ncn(-c3ncnc4sc5c(c34)CCC(C)C5)c2cc1C (centres undefined)	-1.4	0	104
O=C(/C=C/c1ccc(Cl)cc1)NCCc1ccccc1	0.0	1	108
CC(=O)Nc1cc(ON=C(C)C)cc([N+](=O)[O-])c1	-1.1	-6	153
COc1ccc(N2C(=O)C3C4c5ccccc5C(C=Nc5ccc(C)cc5C)(c5ccccc54)C3C2=O)cc1 (centres undefined)	-0.6	-5	/
CCOc1ccc(NC(=O)CCC(=O)NNC(=O)COc2ccccc2C)cc1	/	-9	101
Cc1cc(C)cc(NC(=O)CSc2nnc(-c3ccc(S(=O)(=O)N4CCCC4)cc3)o2)c1	-0.3	15	102

(further entries)
SMILES	INS promoter inh	INS promoter inh cell count	RGS16-Gao HTS	GALR2 ag	HSV augment	HSV augment primary fold	PKD1 inh
COc1ccccc1CN(Cc1nc2ccccc2c(=O)[nH]1)C(=O)Nc1ccccc1	-68	53	104	-0.9	i	0.98	-14
Cc1ccc(S(=O)(=O)N2CCCC(C(=O)Nc3ccc(NC(=O)c4ccccn4)cc3)C2)cc1 (centres undefined)	/	/	89	-0.7	i	0.78	-3
COc1ccc(CCN=C(N)NS(=O)(=O)c2ccccc2)cc1	-31	136	107	-1.3	i	0.96	8
CCCCC(CC)Cn1c2nc3ccccc3nc2c2c(=N)oc(C)nc21 (centres undefined)	44	102	103	-1.0	/	/	-17
CCCCN1C(=O)C(O)=C(C(C)=O)C1c1ccccc1[N+](=O)[O-] (centres undefined)	/	/	86	/	i	1	4
Clc1ccccc1C(c1ccccc1)(c1ccccc1)n1ccnc1	-47	60	105	/	i	0.82&0.94	0
Cc1nc(S(=O)(=O)c2ccc(Cl)cc2)nc2c1CCC2	/	/	102	-2.5	/	/	1
CCOC(=O)NC(=O)C(=CNc1cccc(C)c1)C(=O)NC(=O)OCC	-36	76	95	-2.2	i	0.93	-8
O=C(CCN1C(=O)COc2ccccc21)NCCCN1CCc2ccccc2C1	-18	85	101	-1.9	i	1	6
CC(=O)Oc1ccc2c(c1)OC(c1ccccc1)CC21CC(C)(C)NC(=S)N1 (centres undefined)	7	88	100	-1.4	/	/	7
CCOC(=O)c1c(C(F)(F)F)nc2ncccn12	-42	151	101	-0.1	i	0.86	0
CCOC(=O)c1c(N)sc(C(C)=O)c1C	-11	91	92	-3.3	i	0.85	11
O=C(O)CCc1ccc(-c2ccc(Br)cc2)o1	23	68	99	-0.5	i	0.85	-3
O=C(Nc1ccc(OC(F)(F)F)cc1)c1[nH]ncc1[N+](=O)[O-]	-43	141	101	/	i	0.96	0
Cc1ccc(NC(=O)Cn2ccc([N+](=O)[O-])n2)cc1Cl	/	/	102	/	i	0.91	6
COc1ccccc1C(=O)OCC(=O)c1cccc([N+](=O)[O-])c1	44	117	100	-1.2	i	0.91	11
O=[N+]([O-])c1ccc(O)c(/C=N/n2c(CO)nc3ccccc32)c1	/	/	102	/	i	1	/
Cc1cccc(NC(=O)/C(=C\c2cccs2)NC(=O)c2ccccc2)c1	33	97	103	-3.3	i	0.85	0
COC(=O)Cc1n[nH]c(=S)[nH]c1=O	/	/	93	-1.6	i	0.83	0
COc1ccccc1C(=O)N1CCN(S(=O)(=O)Cc2ccccc2)CC1	/	/	101	-2.6	i	0.96	0
CN1C(=O)CSc2ccc(NC(=O)NCCC3=CCCCC3)cc21	39	111	91	-1.2	i	0.85	2
COc1ccc(N2CCN(S(=O)(=O)c3ccc(Br)s3)CC2)cc1	58	78	196	-1.2	i	0.97	4
Cc1cccc(NC(=O)C2(c3cccs3)CCOCC2)n1	/	/	98	0.5	i	1.1	-11
O=P(O)(CP(=O)(c1ccccc1)c1ccccc1)c1ccccc1O	-50	109	103	-0.6	i	1.3	-9
Nc1nc(N)nc(-c2ccccc2-c2nc(N)nc(N)n2)n1	/	/	111	/	i	1.1	/
CCOc1ncccc1C(=O)N1CCN(S(=O)(=O)c2ccccc2)CC1	-27	94	105	/	i	1.2	-7
Cc1ccc(N2C(=O)C(CN(C)C)C2c2ccccc2)cc1 (centres undefined)	32	141	96	-0.3	i	0.98	13
CNC(=O)CC1C(=O)N(c2ccc(OC)cc2)C(=S)N1NC(=O)c1cccc(F)c1 (centres undefined)	/	/	104	/	i	0.95	/
Cc1ccc(-n2nc(C)c3c(C)cc(=O)[nH]c32)cc1	43	121	82	-1.1	i	1.4	-2
